Source: PubChem BioAssay (several laboratories)
MT1-MMP act inh: blocks activation of human MT1-MMP; GFP/RFP ratio change, % at 20 µM; P50281; 360,000 tested, 0.061% active; HT1080 RFP-PRO-GFP cells, GFP/RFP ratio fluorescence, overnight; percent of plate control window, DMSO zero;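 active means GFP/RFP ratio change of at least 30% with cell ATP level not reduced by more than half and red fluorescence within 50% of control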; further: strong numbers were not always called active
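Assay system: RFP-PRO-GFP reporter HT1080 cells; read-out basis: GFP/RFP fluorescence ratio; benchmarks: DMSO wells and RFP-L50D-GFP cells; doses: 20 µM single dose, 1% DMSO; schedule: overnight cell settling, then overnight compound exposure, 37 °C, 5% CO2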
CSC inhib: cancer stem cell inhibition; cancer stem cell-like cells viability, luminescence; inhibition, % at 7.5 µM; 300,000 tested, 1.1% active; AID 2717;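 active means mean at 75% or more and at least half the replicates too; tested in HMLE shEcad cells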;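 further: 0% = median of negative and 100% = median of positive control wells; the first replicate is given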
PABP FP inh: blocks human PABP binding to poly(A) RNA; P11940; fluorescence polarization; inhibition, % at 35 µM; 290,000 tested, 1% active; AID 2014;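 active means 50% or more with normal probe brightness, or confirmed in later tests; about a fifth of its hits are not listed in these tables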;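 further: calls also rest on retests at 20 µM and on dose response follow-up; controls were probe without protein and protein plus probe with vehicle; some compounds called inactive have numbers as strong as hits; many hits fall short of the cut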
Target sequence (P11940 whole entry, looked up): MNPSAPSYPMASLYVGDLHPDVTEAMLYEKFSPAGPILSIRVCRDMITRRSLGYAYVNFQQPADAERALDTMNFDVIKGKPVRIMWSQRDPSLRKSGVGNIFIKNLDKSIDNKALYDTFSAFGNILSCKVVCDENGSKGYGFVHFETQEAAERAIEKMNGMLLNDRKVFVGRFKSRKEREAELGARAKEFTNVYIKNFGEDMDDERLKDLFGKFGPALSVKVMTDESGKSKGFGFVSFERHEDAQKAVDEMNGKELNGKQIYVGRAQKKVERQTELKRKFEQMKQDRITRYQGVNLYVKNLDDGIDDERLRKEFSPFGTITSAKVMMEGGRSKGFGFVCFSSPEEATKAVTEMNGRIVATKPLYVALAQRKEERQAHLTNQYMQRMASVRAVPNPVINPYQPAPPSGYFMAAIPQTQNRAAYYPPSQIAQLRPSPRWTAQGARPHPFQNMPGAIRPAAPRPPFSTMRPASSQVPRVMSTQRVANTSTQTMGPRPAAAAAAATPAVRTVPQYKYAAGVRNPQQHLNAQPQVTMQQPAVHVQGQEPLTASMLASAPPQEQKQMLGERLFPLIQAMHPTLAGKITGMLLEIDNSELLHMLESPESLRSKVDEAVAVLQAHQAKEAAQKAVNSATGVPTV
eIF4H inh: inhibitors of RNA binding by human eIF4H; Q15056; eIF4H fluorescence polarization binding assay; inhibition, % at 35 µM; 290,000 tested, 0.94% active; AID 2012;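 active means 50% or more with normal probe brightness, or confirmed in later tests; about a fifth of its hits are not listed in these tables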;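 further: calls also rest on retests at 20 µM and on dose response follow-up; 0% = protein and probe with vehicle and 100% = probe without protein; strong numbers were not always called active; many hits fall short of the cut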
Env fusion inh: blocks HIV Env-driven cell-cell fusion; AID 651610; inhibition, % at 12.3 µM; 360,000 tested, 1.1% active; HeLa-JRFL Env/CEM21 cell fusion, luciferase;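 active means mean replicate inhibition score of at least 50 and every replicate individually at or above 50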;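 further: 0% = plate neutral controls and 100% = maraviroc near 300 nM; one replicate is shown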
Rce1 inhib: inhibitors of yeast Ras-converting enzyme. 290,000 tested, 0.27% active. Q03530. calls only. yeast membranes, quenched prenylated peptide cleavage fluorescence;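 active means fall in fluorescence gain of 50% or more versus controls, with final raw signal at or below 3038400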;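 further: plate controls were neutral control wells for no effect and wells lacking membranes for full effect; tested at 10 µM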
Target sequence (Q03530 whole entry, looked up): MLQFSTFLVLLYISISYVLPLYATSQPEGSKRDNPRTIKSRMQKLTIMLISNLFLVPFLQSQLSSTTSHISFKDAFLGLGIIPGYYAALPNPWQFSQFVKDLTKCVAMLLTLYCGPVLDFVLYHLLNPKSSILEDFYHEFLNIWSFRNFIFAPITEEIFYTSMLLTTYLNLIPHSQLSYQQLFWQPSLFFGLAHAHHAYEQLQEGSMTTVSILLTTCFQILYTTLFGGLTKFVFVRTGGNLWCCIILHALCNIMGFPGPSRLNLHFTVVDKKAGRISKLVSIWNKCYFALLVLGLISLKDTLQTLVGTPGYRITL
Yeast UUG start: yeast start codon fidelity modulation. S. cerevisiae UUG-firefly luciferase reporter, luminescence/redox ratio. activity score, % at 18.7 µM. 350,000 tested, 0.13% active. AID 602363;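 active means replicate mean at a twofold rise or more, about +100% in these data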;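 further: firefly luciferase made from a UUG start codon reports start codon fidelity; reporter light over untreated wells divided by growth signal over untreated wells; some hits fall short of that in this replicate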
eIF4H inh retest: recorded beside eIF4H inh, whose call it bears; inhibition, %; compound at 20 µM; confirmation average;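 mean of two retest wells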
PABP FP inh retest: further read-out of PABP FP inh, marked with its call; inhibition, %; compound at 20 µM; confirmation repeats;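 mean of two retest wells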
MT1-MMP act inh RFP: recorded beside MT1-MMP act inh, whose call it bears; RFP signal change, %; measured here: RFP expression control read;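 0 = vehicle wells; hits needed this value within 50% of zero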
Starred values were filed as active, the others as inactive; i = inactive; . = no result given; + = active, no number; & = joins results of further samples; [ ] = remark or other dose. An excerpt (hit frequency here may not be typical).

Sample of the layout:
SMILES | MT1-MMP act inh | MT1-MMP act inh RFP | CSC inhib | PABP FP inh | eIF4H inh | Env fusion inh | Rce1 inhib | Yeast UUG start | others
Cc1cnc(C(=O)OCC(=O)c2ccc[nH]2)cn1 | 0 | 2 | . | . | . | 14 | i | 9
CCCCOC(=O)c1ccc(NC(=O)CSC2=Nc3ccccc3C3CC=NN23)cc1 (stereo not drawn) | 1 | -1 | 5 | -9 | -3 | -219 | i | -17
COc1ccc(C2NCCc3sccc32)cc1 (stereo not drawn) | -1 | 2 | 0 | 2 | -5 | 17 | i | .
O=C(COc1ccccc1)NCCSc1ccccc1 | -7 | -3 | -2 | 8 | 10 | -39 | i | 6
CCOC(=O)c1cccc(NC(=O)c2cnccn2)c1 | 2 | 5 | -4 | -4 | 5 | -23 | i | -11
O=C(C[n+]1ccc(C(=O)c2ccccc2)cc1)Nc1ccccc1OC(F)F | -4 | -2 | -7 | . | . | -8 | . | -7
C[C@H](CO)N1C[C@H](C)[C@@H](CN(C)C(=O)Nc2ccc(C(F)(F)F)cc2)Oc2ccc(NC(=O)c3ccncc3)cc2C1=O | 2 | 4 | -4 | . | . | 0[16.7 µM] | . | -9&-3
O=C(Cc1cccc(NC(=O)C2CCCN(C(=O)C3CCC3)C2)c1)Nc1ccc(C(=O)N2CCOCC2)cc1 (stereo not drawn) | 3 | 4 | . | . | . | -18 | . | 9
CC(=O)Nc1ccc(/C=C/c2nc(-c3ccccc3O)n[nH]2)cc1 | 1 | -14 | 20 | -2 | -8 | -46 | i | -17
COCCNC(=O)C(c1ccco1)N(C(=O)Cn1nnc2ccccc21)c1cccc(C)c1C (stereo not drawn) | -5 | -2 | 8 | 3 | 7 | -108 | i | 9
COc1ccc2c(Cl)c(C(N)=O)sc2c1 | -3 | 1 | 4 | -5 | -3 | . | i | .
CCN(CC(=O)Nc1ccc(NC(C)=O)cc1)C(=O)CCCSc1nc2ccccc2[nH]1 | -2 | 0 | 4 | . | . | -2 | i | .
Cc1noc(C)c1COC(=O)C1CCN(C(=O)c2ccc(Cl)cc2)CC1 | -1 | -4 | -15 | 9 | -1 | 6 | i | .

Results, from the start:
SMILES | MT1-MMP act inh | MT1-MMP act inh RFP | CSC inhib | PABP FP inh | eIF4H inh | Env fusion inh | Rce1 inhib | Yeast UUG start | others
Cc1cnc(C(=O)OCC(=O)c2ccc[nH]2)cn1 | 0 | 2 | . | . | . | 14 | i | 9
CCCCOC(=O)c1ccc(NC(=O)CSC2=Nc3ccccc3C3CC=NN23)cc1 (stereo not drawn) | 1 | -1 | 5 | -9 | -3 | -219 | i | -17
COc1ccc(C2NCCc3sccc32)cc1 (stereo not drawn) | -1 | 2 | 0 | 2 | -5 | 17 | i | .
O=C(COc1ccccc1)NCCSc1ccccc1 | -7 | -3 | -2 | 8 | 10 | -39 | i | 6
CCOC(=O)c1cccc(NC(=O)c2cnccn2)c1 | 2 | 5 | -4 | -4 | 5 | -23 | i | -11
O=C(C[n+]1ccc(C(=O)c2ccccc2)cc1)Nc1ccccc1OC(F)F | -4 | -2 | -7 | . | . | -8 | . | -7
C[C@H](CO)N1C[C@H](C)[C@@H](CN(C)C(=O)Nc2ccc(C(F)(F)F)cc2)Oc2ccc(NC(=O)c3ccncc3)cc2C1=O | 2 | 4 | -4 | . | . | 0[16.7 µM] | . | -9&-3
O=C(Cc1cccc(NC(=O)C2CCCN(C(=O)C3CCC3)C2)c1)Nc1ccc(C(=O)N2CCOCC2)cc1 (stereo not drawn) | 3 | 4 | . | . | . | -18 | . | 9
CC(=O)Nc1ccc(/C=C/c2nc(-c3ccccc3O)n[nH]2)cc1 | 1 | -14 | 20 | -2 | -8 | -46 | i | -17
COCCNC(=O)C(c1ccco1)N(C(=O)Cn1nnc2ccccc21)c1cccc(C)c1C (stereo not drawn) | -5 | -2 | 8 | 3 | 7 | -108 | i | 9
COc1ccc2c(Cl)c(C(N)=O)sc2c1 | -3 | 1 | 4 | -5 | -3 | . | i | .
CCN(CC(=O)Nc1ccc(NC(C)=O)cc1)C(=O)CCCSc1nc2ccccc2[nH]1 | -2 | 0 | 4 | . | . | -2 | i | .
Cc1noc(C)c1COC(=O)C1CCN(C(=O)c2ccc(Cl)cc2)CC1 | -1 | -4 | -15 | 9 | -1 | 6 | i | .
O=C(Cn1cnc2c(OCc3ccccc3)ncnc21)NCCCN1CCCC1=O | 1 | 4 | . | . | . | -27 | . | -23
Cc1onc(-c2ccccc2Cl)c1C(=O)Nc1ncn[nH]1 | -1 | 1 | 9 | 22 | 0 | 16 | i | -24
CCOC(=O)c1ccc(NC(=O)CSc2ncccn2)cc1 | -1 | 1 | 7 | 18 | 0 | . | . | -18
COc1ccccc1NOC(=O)CCOc1ccccc1 | 3 | 1 | . | . | . | 12 | . | -17
CN1C=CC=C/C1=C1\SC(=S)N(N)C1=O | 5 | 3 | -3 | -12 | -3 | 13 | i | .
Cc1c(O)ccoc1=O | -24 | -9 | -6 | -3 | 12 | . | i | 0
CCc1noc(C)c1C(=O)Nc1nc(-c2cc(C)ccc2C)c(C)s1 | -25 | -25 | -18 | 4 | 1 | -98 | i | -10
Cc1nc(SCC(=O)N(C)C2CCS(=O)(=O)C2)c2ccccc2n1 (stereo not drawn) | 1 | -1 | -15 | . | . | -16 | . | -12
C=CCNC(=O)C1CC(=O)N(c2ccc(OCC(=O)Nc3c(C)cccc3C)cc2)C1 (stereo not drawn) | 5 | 3 | -17 | 5 | 6 | -1 | i | -6
Cn1cc(C(=O)c2ccc(Cl)cc2Cl)cc1C(=O)N/N=C(\N)COc1ccc(Cl)cc1 | -4 | -17 | 32 | -7 | 14 | 37 | i | .
O=C(O)c1cnccn1 | 3 | 6 | 9 | 4 | -2 | -5 | i | -13
COc1ccccc1NC(=O)C(C)OC(=O)C1CCN(S(=O)(=O)c2ccc(C)c(C)c2)CC1 (stereo not drawn) | -4 | -3 | . | . | . | -2 | i | -3
C/C=C/C(=O)Nc1cccc(C(F)(F)F)c1 | 1 | 4 | 6 | 7 | -1 | -4 | i | .
COc1ccc(C2c3cc(OC)c(OC)cc3CCN2C(=O)c2cccc([N+](=O)[O-])c2)cc1OC (stereo not drawn) | 0 | 0 | -3 | 12 | 8 | 0 | i | -4
CSCCC(Nc1ncnc2ccc(Br)cc12)C(=O)O (stereo not drawn) | -4 | -2 | -8 | 6 | 2 | 5 | i | -19
Brc1ccc(-c2nnc3sc(CN4CCN(c5ccccc5)CC4)cn23)cc1 | 4 | 1 | 2 | -5 | -6 | . | i | -19
CCCCn1nnnc1SCC(=O)Nc1sc2c(c1C#N)CCCC2 | -7 | -5 | 27 | 0 | -8 | . | i | -45
CC(=O)N1c2ccc(S(=O)(=O)N3CCC(C(=O)N4CCCCC4)CC3)cc2CC1C (stereo not drawn) | 2 | -16 | -21 | -10 | -11 | 9 | i | -3
O=C1NC(=S)S/C1=C\c1ccc(SCc2ccccc2)o1 | -19 | -13 | 76* | 3.2* | 80* | 1 | . | -22 | eIF4H inh retest=97*;PABP FP inh retest=85*
CN(CC(=O)Nc1ccccc1Cl)C(=O)COC(=O)/C=C/c1ccc(C(F)(F)F)cc1 | -1 | 3 | 15 | 35 | 2 | 21 | i | -6
NS(=O)(=O)c1cc(Br)c2c(c1)S(=O)(=O)NCN2 | -1 | 1 | . | . | . | -31 | . | -3
O=C1/C(=C2\C(=O)N(Cc3ccc(F)cc3)c3ccccc32)SC(=S)N1CCS(=O)(=O)O | -2 | 0 | -9 | 34 | 10 | -6 | i | -4
CC(C)(C)NC(=O)Cn1c(-c2nonc2N)nc2ccccc21 | 3 | 2 | -5 | -2 | -12 | . | i | -16
Cc1cccn2c(CN(C)C3CCOC3)c(C(=O)N3CCCCC3)nc12 (stereo not drawn) | -1 | 5 | -2 | -1 | 3 | 4 | i | 5
CN1CCN(C(=S)NC(=O)/C=C/c2ccccc2)CC1 | 1 | 4 | -2 | -6 | 2 | -43 | i | -6
Cc1cccc(C)c1OCc1cc(C(=O)NCC2COCCO2)no1 (stereo not drawn) | -4 | 0 | 5 | -9 | -2 | . | i | -11
COc1ccc(CN2CCNC(=O)C2CC(=O)NCCc2nc(C)c3c(n2)CCC3)cc1C (stereo not drawn) | -2 | 5 | -16 | 5 | 13 | 9 | i | -4
CC1=C(C(=O)OCC(C)C)C23C(=O)c4ccccc4C2(O1)OC(N)=C3C#N (stereo not drawn) | 11 | 3 | -8 | 5 | -12 | . | i | 10
COc1ccc(OCC(=O)NS(=O)(=O)c2ccc(Cl)cc2)cc1 | -1 | -1 | . | 11 | -11 | 4 | + | -11
COc1ccc(C(CNC(=O)CCNS(=O)(=O)c2ccc(C)cc2)N2CCOCC2)cc1 (stereo not drawn) | -2 | 0 | -5 | . | . | -1 | i | 1
Cc1ccc(C(=O)NCc2ccccn2)cc1S(=O)(=O)N1CCOCC1 | -6 | -1 | . | . | . | 19 | . | -11
COc1ccc(NC(=O)C2CCCN2S(=O)(=O)c2cccc3nsnc23)c(OC)c1 (stereo not drawn) | 0 | 0 | 0 | -4 | 6 | . | i | 1
NC(=O)CSc1nc2ccccc2c(=O)n1Cc1ccco1 | 0 | -1 | 2 | 2 | -7 | . | i | -13
CCC(C)N(C(=O)COC(=O)C1C(C(=O)OC)=C(C)NC(C)=C1C(=O)OC)C1CCS(=O)(=O)C1 (stereo not drawn) | 1 | 4 | -6 | -14 | -8 | -5 | i | .
CC1=C(C(=O)N2CCOCC2)CC(CC(=O)NC2CCCC2)C(=O)N1Cc1ccccc1 (stereo not drawn) | 1 | 4 | . | . | . | 13 | . | 3
Cc1cc(C)c(NC(=O)C2CC(=O)N(C(C)C)C2)c(C)c1 (stereo not drawn) | -1 | 1 | -22 | 7 | 7 | -3 | i | -7
COC(=O)c1c(NC(=S)Nc2ccccc2Cl)sc(C)c1C | 7 | 5 | 1 | 4 | 0 | . | i | -5
CC(C)(C)S(=O)N1Cc2cc(=O)n(Cc3ccccc3)c(CCO)c2[C@@H]1CCO (stereo partly drawn) | -1 | 6 | . | . | . | -25 | . | -9
CCCc1ccc(NC(C)C(=O)Nc2ccc(S(=O)(=O)N3CCOCC3)cc2)cc1 (stereo not drawn) | 2 | -1 | . | . | . | 8 | . | -4
Cc1cccc(NC(=O)C2CC(=O)N/C(=N/N=C/c3ccco3)S2)c1 (stereo not drawn) | 6 | 3 | -16 | -8 | 2 | -8 | i | -23
CCOc1ccccc1C(=O)NC1CCN(Cc2nnnn2C2CCCC2)CC1 | 6 | -4 | . | 0 | 5 | -6 | i | -19
O=C(Nc1ccc(N2CCN(C(=O)c3ccccc3)CC2)cc1)c1ccc2c(c1)OCO2 | 0 | -8 | . | -3 | -13 | 5 | i | -10
COc1ccc(C(=O)NNC(=O)C(C)NC(=O)c2ccccc2NC(=O)c2ccco2)cc1 (stereo not drawn) | -3 | -1 | -3 | 2 | 4 | -8 | i | .
O=C(O)c1ccc(-c2cccc(Cl)c2)o1 | 4 | 4 | 10 | . | . | 6 | i | -11
CCCCNC(=O)CCc1c(C)nc2nc(-c3cc(OC)cc(OC)c3)nn2c1C | 0 | -5 | -1 | -5 | -1 | -38 | i | -1
